# StopGo FLuc: lowers the firefly signal of an FMDV 2A StopGo reporter. HEK cells with a luciferase reporter of 2A StopGo recoding. Potency, µM (titrated, usually from 57.5 µM), without a hit: at the top dose signal change, negative = less light. 120,000 compounds, 0.23% hits. AID 1745856; active = well fitted falling curve with a large enough effect; inconclusive = small, poorly fitted or top-dose-only effect; inactive = no such curve, though single readings can be large or run the other way; also: nearly all actives have a fitted effect of over 60% in size; overnight with compound
# 2A Renilla: lowers the Renilla signal of an FMDV 2A StopGo reporter; Potency, µM (top dose mostly 57.5 µM), without a hit: top-dose signal change, negative = less light; 120,000 compounds, 0.32% hits; HEK cells with a luciferase reporter of 2A StopGo recoding; active means well fitted falling curve with a large enough effect; inconclusive means small, poorly fitted or top-dose-only effect; inactive means no such curve, though single readings can be large or run the other way; also: nearly all actives have a fitted effect of over 55% in size; overnight with compound
# Starred values were filed as active, the others as inactive; ? = inconclusive; & = joins results of further samples; [ ] = remark or other dose. % is scaled to controls: 0 for no effect and ±100 for the full control effect; potency is read from the fitted curve at half-maximal effect.
# Sequence of screens: StopGo FLuc | 2A Renilla
CN(C)c1ncccc1CNC(=O)c1nccnc1N
    12% | 12%
O=C(CSc1ncnc2c1oc1ccccc12)NC1CCCC1
    67%[activator] | 5%
Cc1ccccc1-c1noc(-c2ccc(N3CCC(C)CC3)c([N+](=O)[O-])c2)n1
    7% | -11%
Cc1cc(N2CCOCC2)nc2ccc(NC(=O)Nc3ccccc3)cc12
    60%[activator] | 0%
Cc1ccc(-n2c(SCc3ccccc3F)nc3[nH]ncc3c2=O)cc1C
    -13% | 8%
CCOC(=O)c1c(NC(=O)c2cc(-c3ccc(Br)cc3)on2)sc(C(C)=O)c1C
    6% | 4%
CCOc1ccc(-c2nc(SCC(=O)Nc3ccc4c(c3)OCCO4)c(-c3ccc(F)cc3)[nH]2)cc1
    13% | 3%
CCCCn1c(SCC(=O)Nc2ccc(C(C)=O)cc2)nc2c(-c3ccccc3)c[nH]c2c1=O
    23% | 184%[activator]
CN(CC(=O)Nc1ccc(C(F)(F)F)cc1)C1CCc2ccccc21 (stereo not given)
    24% | 42%[activator]
CCN(CC(=O)Nc1ccccc1C(F)(F)F)Cc1coc(-c2ccc(C)cc2C)n1
    13% | 1%
O=S(=O)(CCCCC(Cl)(Cl)Cl)NCc1ccco1
    16% | 140%[activator]
S=C(NCCc1ccccc1)NCc1cccc(Br)c1
    0% | 272%[activator]
Cc1ccc(CNC(=O)c2cc3c(=O)n4cccc(C)c4nc3s2)cc1
    7% | -5%
COc1ccccc1NC(=O)c1cn(-c2ccccc2)nc1-c1ccccc1
    53%[activator] | 38%[activator]
Cc1ccc(C)c(CNC(=O)c2cc3ccccn3n2)c1
    11% | 37%[activator]
COc1cc(NC(C)CCCN)c2ncccc2c1 (stereo not given)
    -6%[11.5 µM] | -12%
CCC(C)Nc1sc(S(C)(=O)=O)nc1S(=O)(=O)c1ccc(C)cc1 (stereo not given)
    -2% | 74%[activator]
C=C(C)Cn1c(NCCCOCC)nc2c1c(=O)n(C)c(=O)n2C
    19% | 2%
COc1ccccc1NC(=O)C(Cc1ccccc1)NS(=O)(=O)c1ccc2c(c1)c(=O)n(C)c(=O)n2C (stereo not given)
    -10% | -2%
Fc1ccccc1CNC(=S)NC1CC2CCC1C2 (stereo not given)
    0% | 169%[activator]
CCC(C)NC(=O)c1c(C)oc2ncn(CC(C)C)c(=O)c12 (stereo not given)
    7% | 23%
COc1cccc(-c2cn3c(n2)sc2cc(C(=O)NCc4cccs4)ccc23)c1
    75%[activator] | 24%
CN1CCN(c2nc(-c3cccnc3)nc3ccccc23)CC1
    -10% | -19%
CC(=O)Nc1ccc(NC(=O)COC(=O)C2CCN(/C=C/C(=O)C(F)(F)F)CC2)cc1
    -4% | 4%
CCCc1noc(-c2ccc(NCc3ccccc3OC)c([N+](=O)[O-])c2)n1
    22% | -5%
Cc1sc(NC2CC2)nc1-c1ccc(NS(C)(=O)=O)cc1
    4% | -10%
O=C(NCCc1ccccn1)C(F)(F)c1ccccc1
    0% | 0%
Cn1c(=O)c2nc(SCc3cccc(F)c3)n(C)c2n(C)c1=O
    3% | -2%
Cc1ccc(NC(=O)CN2CCN(C(=O)CCNC(=O)c3ccc(C(C)(C)C)cc3)CC2)cc1
    71%[activator] | -7%
CCOc1cc(/C=C2/NC(=O)NC2=O)cc(Cl)c1OC(C)C
    4% | -3%
O=c1c(-c2ccc(Cl)cc2)coc2cc(OCCN3CCN(CCO)CC3)ccc12
    10% | ?
CCCNC(=O)CSc1c(CC)cnc2c1c(=O)n(C)c(=O)n2C
    -4% | -4%
Cc1ccc(S(=O)(=O)c2nnn3c2nc(N2CCCCC2)c2sccc23)cc1
    -13% | 10%
CN(C)c1ccc(O)c2c1C[C@H]1C[C@H]3[C@H](N(C)C)C(=O)C(C(N)=O)=C(O)[C@@]3(O)C(=O)C1=C2O
    -8%[11.5 µM] | -9%
CC(NC(=O)CNC(=O)c1ccc(N2CCCC2=O)cc1)c1ccccc1Br (stereo not given)
    -7% | -8%
COc1cccc(CNC(=O)c2ccc3noc(-c4ccc(C)cc4)c3c2)c1
    0% | 10%
Cc1ccc(Cl)cc1N1CCN(S(=O)(=O)c2ccc3c(c2)CC(C)N3C(=O)C2CCC2)CC1 (stereo not given)
    -12% | -10%
CCOC(=O)N1CCN(C(=O)CN(c2ccccc2OCC)S(=O)(=O)c2ccc(C)cc2)CC1
    0% | 93%[activator]
c1cc(OCc2nc(-c3cccs3)no2)cc(-n2cnnn2)c1
    95%[activator] | 2%
O=C(/C=C\c1ccc2c(c1)OCO2)NC1CC(=O)N(c2ccccc2)C1 (stereo not given)
    -2% | -3%
CCS(=O)(=O)CC(=O)O
    18% | 23%
COc1ccc(CCn2c(CCCOc3ccc(Cl)cc3Cl)n[nH]c2=S)cc1OC
    -4% | 23%
CCN(CC)C(=O)/C(=C/c1cn(S(=O)(=O)N(C)C)c2ccccc12)NC(=O)c1ccccc1OC
    -4% | 218%[activator]
COc1ccc(NC(=O)CCn2cnc3onc(-c4ccc(F)cc4)c3c2=O)cc1OC
    ? | 4µM*
COc1ccc(NC(=O)c2oc3ccccc3c2NC(=O)Cc2coc3cc(C)ccc23)cc1
    16% | -6%
C#CCOc1ccc(C(=O)Nc2cccc3ccccc23)cc1
    223%[activator] | 20%
Cc1cccc(N2C(=O)CSC23C(=O)N(C)c2ccccc23)c1 (stereo not given)
    3% | -9%
CCOc1ccccc1CNC(=O)CSc1n[nH]c(-c2ccccc2Cl)n1
    0% | 19%
COc1cc(C2CC(=O)Nc3ccsc32)ccc1OCC(N)=O (stereo not given)
    18% | 5%
Cc1ccc(S(=O)(=O)NC2CC2)cc1C(=O)N1CCN(c2ccccc2O)CC1
    -17% | 11%

# Additional records
# Sequence of screens: StopGo FLuc | 2A Renilla
COc1ccc(C)cc1S(=O)(=O)NCC(c1cccs1)S(=O)(=O)c1ccc(C)cc1 (stereo not given)
    -14% | 0%
c1ccc(CNCc2ccc(-c3ccccc3)o2)cc1
    55%[activator] | 21%
CCCN1CCN(CCCNC(=O)Cn2nc(C)n3c(cc4cc(F)ccc43)c2=O)CC1
    -12% | 1%
CC(C)NS(=O)(=O)c1ccc(C(=O)NCC(=O)O)cc1
    3% | 3%
Cc1nc2c(cnn2C(C)C)cc1C(=O)N(C)Cc1c(F)cccc1Cl
    5% | -20%
Cc1cc(C)c2nc(SCC(=O)N3CCCC3)cc(C)c2c1
    -9% | -5%
CCN1CCN(c2c(S(=O)(=O)c3ccc(OC)cc3)cnc3cc(OC)c(OC)cc23)CC1
    3% | -4%
COc1cccc(/C=C/c2nc3cc(C)c(C)cc3s2)c1OC
    183%[activator] | -3%
CC(C)(C)CC(C)(C)c1ccc(O)cc1
    -9%[11.5 µM] | -8%
O=C(COC(=O)c1cc(=O)c2ccccc2o1)Nc1ccccc1F
    23% | -4%
NC(=O)COC(=O)c1cc(-c2ccc(F)cc2)nc2ccccc12
    0% | 7%
CCOC(=O)c1ccc(NC(=O)CSc2ncc(S(=O)(=O)c3ccc(C)c(Cl)c3)c(=O)[nH]2)cc1
    0% | -12%
CC(C(=O)Nc1c(F)cccc1F)N1CCN(c2ccc(O)cc2)CC1 (stereo not given)
    13% | 1%
CC(C)NC(=O)CNC(=O)c1nc2ccccc2c(=O)[nH]1
    34%[activator] | 7%
COc1cc(C2CC(=O)N(c3sc4c(c3C#N)CCCC4)C3=C2C(=O)CCC3)cc(OC)c1OC (stereo not given)
    5% | -2%
COC(=O)C1CN(Cc2cn(CCC3OCCO3)nn2)CCS(=O)(=O)N1Cc1ccc(F)cc1 (stereo not given)
    5% | 2%
Cc1cc(NC(=O)C(C)OC(=O)c2cc3c(s2)CCCCCC3)no1 (stereo not given)
    16% | 2%
O=C(NCCc1ccccc1)OCc1cn(Cc2ccc(C(F)(F)F)cc2)nn1
    0% | 8%
O=C(OCCOc1ccccc1F)c1ccc2nccnc2c1
    138%[activator] | 1%
CCOc1ccc(/C=C2\Oc3cc(OS(C)(=O)=O)ccc3C2=O)cc1
    -11% | -13%
CCOc1ccc(OCC)c(NS(=O)(=O)c2ccc(-c3cnc(C)o3)cc2)c1
    -21% | 87%[activator]
COc1cccc(-n2c(C)c(C)c3c2ncn2nc(-c4cccs4)nc32)c1
    0% | -7%
CCOc1ccc(NC(=O)c2nc3ccccc3nc2N2CCCCC2)cc1
    -11% | -9%
O=C(NCc1ccc(Cl)cc1)c1ccc2c(Cl)c3c(nc2c1)CCCC3
    -9% | -2%
Cc1cccc(/N=C/c2ccc([N+](=O)[O-])cc2)n1
    9% | 17%
COc1ccc(Nc2nc3ccccc3nc2NS(=O)(=O)c2ccc(C)cc2)c(OC)c1
    1% | -4%
CC(C)Cc1noc(CN2CCN(c3cccc(F)c3C#N)CC2)n1
    19% | 37%
COC(=O)/C(C#N)=C/c1ccc(OC)c(COc2cccc(C(F)(F)F)c2)c1
    2% | 3%
Cn1c(=O)c2c(ncn2CC(=O)Nc2cccc(Br)c2)n(C)c1=O
    -2% | -10%
CCOC(=O)N1CCC(NC(=O)c2cnn(-c3ccc(C)cc3C)c2C2CCN(C(=O)OC(C)(C)C)CC2)CC1
    ? | 3%
CCc1nn(CC(=O)Nc2ccc(C)c(F)c2)c(=O)c2cc3cc(C)ccc3n12
    202%[activator] | 24%
CN1C(=O)Cc2cc(S(=O)(=O)NCCc3ccccc3)ccc21
    9% | 229%[activator]
CC(C)n1cnc(S(=O)(=O)N2CCCC(C(=O)NCc3ccccc3Cl)C2)c1 (stereo not given)
    -5%&24% | 43%&99%[activator]
Cc1cccc(Nc2c(-c3ccsc3)nc3nc(C)cc(C)n23)c1
    -7% | ?
Cc1ccc(NC(=O)CCCn2c3ccccc3c(=O)c3cc(C)ccc32)c(Br)c1
    -28% | -5%
COc1cccc(OC)c1C(=O)Nc1ccc(N2CCN(C)CC2)c(Cl)c1
    27% | -2%
CCOC(=O)c1ccc(NC(=O)CN(c2ccccc2Cl)S(C)(=O)=O)cc1
    -12% | 4%
O=C(Nc1ccc(F)cc1)C1=C(N2CCCC2)c2ccccc2S1(=O)=O
    149%[activator] | 11%
CCOc1ccc(NC(=O)COC(=O)c2n[nH]c3ccccc23)cc1
    107%[activator] | -2%
COc1ccc(-c2nc3nc(C)cc(N4CCN(c5cccc(C(F)(F)F)c5)CC4)n3n2)cc1
    -16% | -19%

# Already shown: entries from further up.
# Sequence of screens: StopGo FLuc | 2A Renilla
CCc1nn(CC(=O)Nc2ccc(C)c(F)c2)c(=O)c2cc3cc(C)ccc3n12
    202%[activator] | 24%
CN1C(=O)Cc2cc(S(=O)(=O)NCCc3ccccc3)ccc21
    9% | 229%[activator]
CC(C)n1cnc(S(=O)(=O)N2CCCC(C(=O)NCc3ccccc3Cl)C2)c1 (stereo not given)
    -5%&24% | 43%&99%[activator]
Cc1cccc(Nc2c(-c3ccsc3)nc3nc(C)cc(C)n23)c1
    -7% | ?
Cc1ccc(NC(=O)CCCn2c3ccccc3c(=O)c3cc(C)ccc32)c(Br)c1
    -28% | -5%

# The list goes on:
# Sequence of screens: StopGo FLuc | 2A Renilla
CCn1nc(C(=O)Nc2ccc(OCC(C)C)c(Cl)c2)c2ccccc2c1=O
    -1% | -6%
Cc1cc(C(=O)CSc2ncnc3ccccc23)c(C)n1C1CC1
    72%[activator] | -3%
COC(=O)CN1CCN(c2nc3c(c(=O)[nH]c(=O)n3C)n2Cc2ccc(F)cc2)CC1
    10% | -1%
O=C(Cn1nc(-c2ccco2)ccc1=O)Nc1ccccc1C(F)(F)F
    4% | -6%
CC(=O)c1cccc(Nc2c3c(nc4nc(-c5cccs5)nn24)CCCC3)c1
    15% | 9%
Cc1cccc(Cn2c(-c3cccc(Br)c3)nc3ccccc32)c1
    -8% | 5%
COc1ccc(C2C=C(c3ccc(Br)cc3)Nc3nnnn32)cc1 (stereo not given)
    3% | -9%
Cc1ccc(-c2nc(C)sc2CC(=O)NCCc2cccs2)cc1
    0% | 55%[activator]
CCCCn1nc(C(=O)Nc2cc(C(F)(F)F)ccc2N2CCOCC2)c2ccccc2c1=O
    -13% | -10%
COc1ccc(C(=O)Nc2nc3n(n2)C(c2ccc(Cl)cc2)C=C(c2ccccc2)N3)cc1OC (stereo not given)
    8% | -16%
Cc1cccc(N2CCN(C(=O)CCSCc3ccccc3F)CC2)c1C
    8% | -3%
CCOC(=O)C(NC(=O)c1nccc2ccccc12)C(=O)OCC
    35% | -7%
C=CCN(CC#CC1=CCCCC1)Cc1ccc(OC)cc1OC
    -4% | -2%
CCOc1ccccc1NC(=O)CN(c1cccc(Cl)c1Cl)S(C)(=O)=O
    -7% | 44%[activator]
O=C(C1CC1)N1CCc2cc(Br)cc(S(=O)(=O)N3CCN(c4cccc(Cl)c4)CC3)c21
    -3% | 36%[activator]
NC(=O)CSc1nc2cc3c(cc2c(=O)n1CCCCCC(=O)NCc1ccc2c(c1)OCO2)OCO3
    -13% | -9%
O=S(=O)(Nc1nc2ccccc2nc1NCc1ccccc1)c1cccc2nsnc12
    7% | 40%[activator]
Cc1ccc2nc(C)cc(C(=O)NC3CCS(=O)(=O)C3)c2c1 (stereo not given)
    -5% | -8%
Cc1ccc(CNC(=O)c2cccc(C3CCCN(C(=O)Nc4ccccc4)C3)c2)o1 (stereo not given)
    ? | ?
CCn1c(SCC(=O)Nc2cc(OC)ccc2OC)nc2c(-c3ccccc3)csc2c1=O
    8% | -2%
CC(=O)N1CCc2c(sc(NC(=O)CSc3ccccc3)c2-c2nc3ccccc3s2)C1
    -20% | -3%
CCOc1ccc(NC(=O)CSc2nccc(-c3ccc(Br)cc3)n2)cc1
    -6% | -18%
CONC(=O)C(C)NC(=O)C12CC3CC(CC(C3)C1)C2 (stereo not given)
    -8% | -3%

# Compound activity as filed in PubChem.

# The list is partial; rates above refer to the full screens.
